# ALR H2O2 inh – blocks human ALR sulfhydryl oxidase activity | P55789 | purified ALR, DTT oxidation, H2O2 HRP-luminol luminescence | inhibition, % (test concentration not listed) | 290,000 tested, 3.8% active | AID 485317;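 active = mean and each replicate at 75% or more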;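 also: stock transfer was 7.5 nL into about 7.5 µL; 0% = neutral wells and 100% = wells with inactivated enzyme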
# Target sequence (P55789 whole entry, looked up): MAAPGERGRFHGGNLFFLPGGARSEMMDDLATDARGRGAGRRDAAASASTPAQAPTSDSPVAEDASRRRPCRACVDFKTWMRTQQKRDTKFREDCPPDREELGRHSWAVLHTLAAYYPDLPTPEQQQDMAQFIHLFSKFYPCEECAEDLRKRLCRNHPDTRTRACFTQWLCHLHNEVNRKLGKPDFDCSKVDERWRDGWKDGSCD
# LANA-H2B inh – blocks KSHV LANA binding to histone H2A/H2B. AID 2629. cell-free LANA-H2A/H2B peptide, fluorescence polarization. inhibition, % (test concentration not listed). 320,000 tested, 0.6% active; in the data active = inhibition mostly above about 10%, no sharp cut-off; inactive = mostly below about 6.7%;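 also: stock transfer was 7.5 nL into about 10 µL; 0% = median of vehicle wells and 100% = median of positive control wells; one replicate is shown; the record names a cut of 25% in any replicate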
# FGF22 binding – shifts melting point of recombinant human FGF22. Q9HCT0. recombinant FGF22 thermal shift, SYPRO orange fluorescence; percent of sucrose octasulfate shift, DMSO zero. calls only at 9.99 µM. 340,000 tested, 1.5% active;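 active = melting point raised past a set limit in the mean and every replicate; three in four hits are not shown here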
# E coli growth – blocks Escherichia coli growth; 330,000 tested, 0.21% active; AID 1053175; OD600, 23 h; active compounds read low; OD600 absorbance (no concentration beside the values);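 active = OD600 absorbance below the run mean of sample wells minus 3.6 SD, in any replicate, cut at about 0.56 in these data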;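 also: stock transfer was 300 nL into about 60 µL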
# HNF4A DNA FP – change in binding of human HNF4 alpha to DNA; HNF4a-FITC DNA binding, fluorescence polarization, 1 h; activity change, % at 10 µM; 360,000 tested, 0.3% active; AID 1224865; in the data active = activity change above about 30%, passing the limit was not always enough;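 also: controls were the assay level and a saturating level of protein; the project sought stronger binding though the title names inhibitors; some compounds called inactive have numbers as strong as hits; positive values seem to mean higher polarization but the record does not say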
# UCH37 inh – blocks the human deubiquitinase UCH37; Q9Y5K5; purified proteasome/UCH37, Ub-AMC cleavage fluorescence; inhibition, % (test concentration not listed); 330,000 tested, 0.33% active; AID 588478;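 active = mean of two replicates above 20%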;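 also: 0% = compound-free wells with enzyme and 100% = wells lacking proteasome; stock transfer was 100 nL into about 20 µL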
# Target sequence (Q9Y5K5 whole entry, looked up): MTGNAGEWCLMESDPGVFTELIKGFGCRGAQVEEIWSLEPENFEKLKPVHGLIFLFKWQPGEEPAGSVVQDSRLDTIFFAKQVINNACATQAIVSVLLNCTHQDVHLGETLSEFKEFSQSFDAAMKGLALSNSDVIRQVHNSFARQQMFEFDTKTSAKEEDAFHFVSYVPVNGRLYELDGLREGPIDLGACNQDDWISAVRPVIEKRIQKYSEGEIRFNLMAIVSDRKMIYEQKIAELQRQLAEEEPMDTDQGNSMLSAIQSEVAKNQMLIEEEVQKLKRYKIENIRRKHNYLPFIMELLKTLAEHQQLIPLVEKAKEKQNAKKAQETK
#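 System: Proteasome-associated human UCH37 deubiquitinase; Input: 0.15 nM proteasome in added enzyme buffer; Also added: Ub-AMC substrate from 1 µM stock; Incubation: 30 min compound-proteasome preincubation then 25 min substrate reaction, room temperature; Detection: fluorescence, ex 355 nm, em 460 nm; Read-out: % inhibition of Ub-AMC cleavage fluorescence; Benchmarks: no-proteasome and no-compound wells.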
# B2AR ag – human beta-2 adrenergic receptor agonism by FAP; 340,000 tested, 0.43% active; P07550; response, % (concentration not given with the values); Am2.2-beta2AR cells, FAP receptor internalization, flow cytometry; reference of the scale not given here;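 active = response above a set limit, near 3 SD of response in nonfluorescent compounds, cut at about 42% in these data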;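 also: stock transfer was 100 nL into about 11 µL; a reference agonist was the positive control; negative values mostly stem from fluorescent compounds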
# Target sequence (P07550 whole entry, looked up): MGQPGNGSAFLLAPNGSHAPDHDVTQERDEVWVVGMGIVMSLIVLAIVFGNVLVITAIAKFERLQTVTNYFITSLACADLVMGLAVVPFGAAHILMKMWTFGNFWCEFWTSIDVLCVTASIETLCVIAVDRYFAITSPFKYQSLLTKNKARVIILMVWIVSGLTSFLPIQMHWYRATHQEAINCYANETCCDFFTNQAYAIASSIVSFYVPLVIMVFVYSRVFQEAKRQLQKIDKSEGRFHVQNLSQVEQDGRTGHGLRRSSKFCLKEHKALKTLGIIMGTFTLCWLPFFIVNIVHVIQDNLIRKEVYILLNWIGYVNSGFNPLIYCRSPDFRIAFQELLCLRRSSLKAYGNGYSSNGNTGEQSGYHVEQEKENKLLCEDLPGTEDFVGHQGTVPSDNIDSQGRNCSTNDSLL
# * hit, by the source's call; i = inactive; nt = no result given.
SMILES,ALR H2O2 inh,LANA-H2B inh,FGF22 binding,E coli growth,HNF4A DNA FP,UCH37 inh,B2AR ag
Cc1ccc(C(=O)Nc2c[nH]c(=O)[nH]c2=O)cc1,-15.1,3.0,i,0.643,-0.9,0.3,2.2
O=C(OCCc1cc2ccccc2c(=O)o1)c1cccc(Br)c1,4.0,2.3,i,0.679,1.4,0.0,-3.5
Nc1ccc(Br)cc1C(=O)O,nt,nt,i,0.697,3.1,-5.2,-3.8
COC(=O)c1cc(NC(=O)CSc2nnc(N)s2)ccc1Cl,-25.8,4.6,i,0.586,-1.5,0.8,-0.2
NC(=O)C1CC(=O)N(c2ccc(OCC(=O)N3CCCC3)cc2)C1 (centres undefined),nt,nt,i,nt,-1.8,nt,0.3
CCOC(=O)c1cnc(SCC(=O)Nc2ccc3c(c2)OCCO3)nc1N,21.1,-0.5,nt,0.675,5.5,3.0,-14.5
CCn1c(SCC(=O)Nc2ccc3c(c2)OCCO3)nnc1C(C)C,nt,0.0,i,0.644,-3.1,4.2,3.1
CCOc1ccc(NC(=O)CCNS(=O)(=O)c2ccc3c(c2)CCC(=O)N3)cc1,-2.2,-0.2,i,0.676,0.4,-0.6,9.5
O=C(COc1ccc2c3c(c(=O)oc2c1)CCC3)N[C@@H](CSCc1ccccc1)C(=O)O,-10.7,5.4,i,0.743,1.3,-5.1,-7.1
CCOc1ccc(C(=O)NCC(=O)NCCSc2ccc(Br)cc2)cc1OCC,nt,nt,i,0.686,-0.2,3.9,-12.0
COc1ccc(CN2CCN(Cc3ccc(C(F)(F)F)cc3)CC2)c(OC)c1,-14.4,-0.6,i,0.614,-1.5,4.0,-1.2
COc1ccc(NC(=O)c2cc(Br)c(Br)s2)cn1,-31.9,-1.7,i,0.683,-5.5,1.9,3.0
O=Nc1[nH]c(=O)c(/C=C(\O)c2ccccc2)nc1NO,66.7,0.6,i,0.669,0.5,10.3,7.0
CC(C)n1c(SCC(=O)N2CCN(C)CC2)nc2c1c(=O)n(C)c(=O)n2C,nt,-3.8,i,0.713,2.8,0.1,6.7
CC(C)[C@H](NC(=O)c1ccccc1Cl)C(=O)NC1CCCCCC1,-7.0,5.4,i,0.692,3.8,1.2,-6.4
COc1ccccc1/C=C/C(=O)Nc1cccc(S(=O)(=O)NC2=NCCCCC2)c1,-16.6,-3.1,i,0.649,4.0,4.0,-6.5
Cc1nn2cc(-c3ccc(Cl)cc3)cnc2c1Cl,3.2,-5.5,i,0.653,2.9,1.3,5.7
CCNS(=O)(=O)c1ccc2nc(NC(=O)/C=C/c3cc(OC)c(OC)c(OC)c3)sc2c1,1.6,1.2,i,0.724,-1.6,-67.0,4.3
O=C(c1ccc2ccccc2c1)C1CCCN(S(=O)(=O)c2cccnc2)C1 (centres undefined),-6.1,-0.7,nt,0.667,0.2,-2.9,8.3
CC(OC(=O)c1cccc(-n2cnnn2)c1)C(=O)N(C)c1ccccc1 (centres undefined),1.1,0.4,i,0.64,-1.0,2.1,0.5
O=C(NCc1ccccc1)c1ccc(Cl)cc1,8.3,-3.4,nt,0.676,nt,1.1,nt
COC(=O)c1ccccc1NC(=O)COC(=O)/C=C/c1ccco1,7.7,12.7,i,0.696,-3.0,4.4,1.2
Oc1cnc2ccccc2c1CN1CCOCC1,0.8,-3.9,nt,0.698,0.2,-63.5,-9.2
O=C(O)CCCC(=O)Nc1ccccc1Br,3.4,-1.6,nt,0.724,3.0,0.5,-9.7
O=C1Nc2ccccc2CCC1Sc1nnc(-c2ccc(Cl)cc2)s1 (centres undefined),13.3,7.0,nt,0.711,-1.2,2.1,-1.5
COc1ccc(C(O)c2nc3ccccc3s2)cc1 (centres undefined),nt,0.5,nt,0.761,nt,1.9,nt
Cc1ccc(-c2c(C)cc3oc(=O)cc(-c4ccccc4)c3c2C)cc1,nt,nt,i,0.722,-2.9,0.8,-0.7
CC1=NN(C(N)=S)C(=O)C1N=Nc1cccc(Cl)c1 (centres undefined),90.2*,0.3,i,0.682,0.8,7.6,-1.5
Fc1ccc(/C=N/n2c(-c3cccs3)n[nH]c2=S)cc1,68.6,-2.4,nt,nt,-0.7,nt,2.7
CCc1cccc2c(C(=O)COC(=O)[C@@H]3CC(O)CN3S(=O)(=O)c3ccccc3[N+](=O)[O-])c[nH]c12 (some centres undefined),-0.5,2.0,i,0.685,0.0,4.7,-3.8
O=C(CSCc1ccc(Cl)cc1)Nc1cccc(C(=O)O)c1,nt,-2.9,i,0.66,3.5,2.0,-2.4
COc1cc2[nH]ccc(=O)c2cc1OC,-15.2,-2.2,i,0.661,2.2,1.8,3.3
CCOc1ccc(NC(=O)c2sc3nc(N4CCOCC4)c4c(c3c2N)CC(C)(C)OC4)cc1,-2.3,5.6,i,0.693,1.4,-174.5,1.1
CCNC(=O)C(=O)Nc1cc2c3c(c1)CCC(=O)N3CCC2,8.9,-4.6,i,0.712,1.6,2.9,0.7
Cc1ccc(Cl)c(OCC(=O)OCC(=O)NC2CCCc3ccccc32)c1 (centres undefined),3.2,-2.3,i,0.712,0.8,-1.8,10.5
CCCCNc1cc(Cl)nc(N)n1,5.0,-2.5,i,0.65,-3.6,1.1,7.4
O=S(=O)(NCc1cccnc1)c1ccccc1,-2.6,-1.8,nt,0.658,-2.7,1.1,-7.3
CC(OC(=O)Nc1cccc(Cl)c1)C(=O)O (centres undefined),-2.2,-6.9,i,nt,2.5,nt,-4.2
CCc1cc(=O)oc2c(C)c(OC(C)C(=O)NCCCn3ccnc3)ccc12 (centres undefined),-1.6,-3.9,i,0.696,3.0,-8.7,-8.8
CCn1c(SCC(=O)c2ccc(F)cc2)nnc1-c1ccoc1C,-4.3,-0.4,nt,0.715,-0.2,0.2,-3.3

# Some of the entries so far, bar-delimited:
Structure | ALR H2O2 inh | LANA-H2B inh | FGF22 binding | E coli growth | HNF4A DNA FP | UCH37 inh | B2AR ag
COc1ccccc1/C=C/C(=O)Nc1cccc(S(=O)(=O)NC2=NCCCCC2)c1 | -16.6 | -3.1 | i | 0.649 | 4.0 | 4.0 | -6.5
CC(OC(=O)c1cccc(-n2cnnn2)c1)C(=O)N(C)c1ccccc1 (centres undefined) | 1.1 | 0.4 | i | 0.64 | -1.0 | 2.1 | 0.5

# (next part)
SMILES,ALR H2O2 inh,LANA-H2B inh,FGF22 binding,E coli growth,HNF4A DNA FP,UCH37 inh,B2AR ag
CC(C)(C)C(=O)Nc1ccc(S(=O)(=O)N2CCC(c3nc4ccccc4[nH]3)CC2)cc1,-2.3,0.7,i,0.724,-2.1,1.7,-2.0
Cc1ccc[n+](-c2[nH]c(=O)sc2/C=N/N=C(\[O-])c2cccnc2)c1,-34.0,-1.5,i,nt,-4.8,nt,-0.6
O=C(Nc1ccc(F)cc1)C1CCCN(S(=O)(=O)c2cccc3cccnc23)C1 (centres undefined),nt,8.3,i,0.748,0.3,2.0,-5.5
O=C(CN1CCCCC1)NNc1nc(-c2ccccc2)c2cc(Cl)ccc2n1,10.3,-6.2,i,0.621,0.8,1.7,-10.1
COc1ccc(S(=O)(=O)N2CCOCC2)cc1NC(=O)Cc1c(F)cccc1Cl,-4.9,4.2,i,0.693,-2.5,0.3,-1.5
Cc1cc(C)c2[nH]c(=O)c(C(c3nnnn3CC3CCCO3)N3CCCC(C)C3)cc2c1 (centres undefined),-2.8,-8.8,nt,0.692,0.0,-4.5,-7.2
O=c1c2cc(Cl)ccc2oc2nc3n(c(=O)c12)CCCS3,2.0,6.1,nt,0.687,-2.5,1.8,-4.9
COc1ccc(-n2nc3c(c2NC(=O)CCCl)CSC3)cc1,-10.4,2.6,i,0.69,-0.6,0.8,0.1
COc1ccccc1NC(=O)/C(=N/OCc1ccc(C#N)cc1)C(C)=O,20.8,-6.6,i,nt,-1.4,nt,6.4
O=C(COC(=O)c1cc[n+]([O-])cc1)Nc1ccc([N+](=O)[O-])cc1Cl,-5.4,-0.2,i,0.653,1.4,3.3,-4.5
CCN1CCN(S(=O)(=O)c2ccc(C(=O)Nc3ccccc3)cc2)CC1,-5.2,0.3,i,nt,2.2,nt,-3.6
Cc1ccc(/C=C/C(=O)c2nc3ccccc3[nH]2)cc1,7.7,1.0,nt,0.727,-2.0,2.5,6.7
CS(=O)(=O)c1ccc(Cl)c(NC(=O)CN2C(=O)C3CCCCC3C2=O)c1 (centres undefined),-0.8,0.9,i,0.679,0.6,1.0,-19.4
O=C(COc1cc(F)ccc1[N+](=O)[O-])Nc1ccc2c(c1)OCO2,0.4,6.5,i,0.665,2.5,1.2,-8.7
COc1cc2c(cc1OC)C(c1ccccc1F)OC(=O)C2 (centres undefined),-4.3,-5.7,i,0.73,12.8,-10.2,1.8
Fc1ccc(/C=C\c2nccc3c2[nH]c2ccccc23)cc1,nt,-9.9,i,0.656,2.4,-179.5,8.1
O=C(NCc1ccc(F)cc1)c1cnc(Cl)c(Cl)c1,-15.8,0.0,i,0.639,-4.8,6.6,-7.6
COc1ccc(-n2c(Cc3cccn3C)nnc2SCC(=O)NC2CCCCC2)cc1,37.0,-2.4,i,0.741,0.7,6.5,-2.7
O=C(CCNC(=O)c1ccc(Cl)cc1)Nc1c(F)c(F)cc(F)c1F,-1.4,3.0,nt,0.713,2.8,0.7,-5.4
CN(C(=O)c1cccc(NC(=O)Cc2ccc(NC(=O)C3CCCN(C(=O)C4CCCC4)C3)cc2)c1)C1CCCC1 (centres undefined),nt,nt,i,0.676,-4.2,1.4,-1.0
COc1ccc(N2C(=O)CSC2c2ccc(F)c(F)c2)cc1 (centres undefined),nt,-1.6,i,0.701,1.4,-0.8,-7.7
O=c1[nH]c(=O)n(Cc2ccco2)c2c1C(C(F)(F)F)(C(F)(F)F)N=C(c1ccc(F)cc1)N2,-2.6,6.0,nt,0.746,-1.3,i,4.1
CCCN1CCC(NC(=O)c2cccc(Oc3ccccc3)c2)CC1,-1.8,-1.1,i,0.677,4.2,1.2,6.3
Cc1cccc(-c2nc(CN3CCN(C(=O)C4CCCO4)CC3)cs2)c1 (centres undefined),-7.7,-4.6,i,0.659,2.2,0.4,0.3
CCN1C(=O)N(CC)C2C1N(C(C)=O)C(=O)N2C(C)=O (centres undefined),-7.0,0.9,nt,0.792,1.6,-1.7,-0.1
CC(C)C(C)NC(=O)CN1C(=O)NC2(CCc3ccccc3C2)C1=O (centres undefined),-10.9,0.5,i,0.684,1.1,0.1,2.7
Cc1nc2cc(CC(=O)O)ccc2o1,nt,1.4,nt,0.674,3.2,0.6,-1.5
CCN(Cc1ccccc1)S(=O)(=O)c1ccc(C(=O)N(CCCN(C)C)c2nc3cc(C)cc(C)c3s2)cc1,-14.2,6.2,i,0.626,2.2,5.7,39.9
CC(C)(C)NCC(O)COc1c(F)cc(Br)cc1F (centres undefined),-11.7,0.8,nt,0.688,-1.9,-0.8,-6.9
COc1cccc(CNC(=O)Cc2nc3nc(C)cc(C)n3n2)c1,1.5,0.0,nt,0.68,1.2,1.2,-17.2
CCS(=O)(=O)c1ccc2c(c1)N(S(=O)(=O)c1ccc(C)cc1)CC(C(=O)O)O2 (centres undefined),-8.8,-7.3,nt,0.696,-0.4,0.9,4.0
CC(NCC1COc2ccccc2O1)C1COc2ccccc2O1 (centres undefined),-0.8,-4.1,i,nt,-0.7,nt,6.0
O=C(CCCN1Cc2ccccc2C1)c1ccc(F)cc1,-6.4,-0.2,i,0.633,-1.4,3.6,-9.9
COC(=O)c1ccc(NC(=O)C(=O)c2cn(CC(=O)N3CCOCC3)c3ccccc23)cc1,-7.7,-1.0,i,0.73,-1.5,3.9,0.8
CCOC(=O)Cn1c(=NC(=O)c2cc(-c3cccs3)nc3ccccc23)sc2cc(S(N)(=O)=O)ccc21,-4.8,1.7,nt,0.742,25.2,-446.4,10.2
CC(C)CC1(C)CNC(=O)NC1,nt,nt,i,0.667,0.3,0.4,0.3
CCN(CC)S(=O)(=O)c1ccc(N2CCOCC2)c(NC(=O)CC23CC4CC(CC(Br)(C4)C2)C3)c1,-6.5,-8.1,nt,0.731,-0.9,4.4,-1.1
O=C(C1CC1)N1CCc2cc(Br)cc(S(=O)(=O)NC3CCCCC3)c21,2.5,1.0,nt,0.729,-1.9,-0.1,-8.6
CCc1ccc(C(=O)COC(=O)CNC(=O)c2ccc(Br)o2)cc1,-29.6,-10.5,i,0.681,-1.7,5.5,9.1

# Some of the compounds tested; rates above refer to the full screens.
